TDP1 cell CPT = growth inhibition of DT40 Tdp1-/-;hTDP1 cells with camptothecin (screen for TDP1 inhibitors). chicken DT40 Tdp1-/-;hTDP1 cells + 20 nM CPT, ATP luminescence, 48 h. Potency, µM (top dose mostly 46.2 µM), inactives show at the top dose activity change, negative = growth inhibition, actives largely listed as inhibitors. 420,000 tested, 12% active. AID 686979; note: nearly all actives have a fitted effect of over 55% in size
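Chicken DT40 Tdp1-/- cells stably complemented with human TDP1 were seeded at 400 cells/well in medium containing 20 nM camptothecin, exposed to pin-transferred compounds, and grown at 37 °C for at least 48 hr. Viability was read as ATP luminescence.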
FEN1 inhibitor = inhibitors of human flap endonuclease 1; 390,000 tested, 0.35% active; Recombinant FEN1 flap cleavage, fluorescence, 15 min; Potency, µM (titrated, usually from 114 µM), for inactives: top-dose activity change, negative = inhibition, actives largely listed as inhibitors; note: nearly all actives have a fitted effect of over 65% in size
Target sequence (P39748 whole entry, looked up): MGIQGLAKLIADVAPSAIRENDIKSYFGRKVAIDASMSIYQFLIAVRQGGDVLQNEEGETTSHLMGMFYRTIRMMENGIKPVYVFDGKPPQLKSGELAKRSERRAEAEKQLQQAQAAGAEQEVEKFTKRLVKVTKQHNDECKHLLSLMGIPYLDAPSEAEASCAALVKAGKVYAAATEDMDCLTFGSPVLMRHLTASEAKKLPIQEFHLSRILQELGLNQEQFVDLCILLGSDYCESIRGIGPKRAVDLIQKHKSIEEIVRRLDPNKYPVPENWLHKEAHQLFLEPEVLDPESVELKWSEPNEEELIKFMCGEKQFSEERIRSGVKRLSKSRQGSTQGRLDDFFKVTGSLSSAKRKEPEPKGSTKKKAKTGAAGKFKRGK
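Recombinant FEN1 (10 nM) was preincubated with pin-transferred compounds for 15 min at room temperature, then flap DNA substrate (50 nM final) was added. Plates were read at 0 and 15 min, and normalized concentration–response data were fitted to a four-parameter Hill equation.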
Numbers without * were called inactive; ? = inconclusive; & = joins results of further samples. Calls come from the whole dose curve; as a rule, active = well fitted curve in the direction sought with a large enough effect; inconclusive = small, poorly fitted or top-dose-only effect, or another doubt; inactive = no such curve, though single readings can be large; an effect the other way counts as inactive or inconclusive. % is set by controls: 0 for no effect and ±100 for the full control effect; potency is the fitted concentration of half-maximal effect. Only part of the results is shown, and most or all hits are left out here.

Structure,TDP1 cell CPT,FEN1 inhibitor
CC1(C)CC2(CC(c3ccccc3F)c3ccc(O)c(O)c3O2)NC(=S)N1 (stereo not given),?,-10%
Cc1cccc(CN2CCC(n3nccc3NC(=O)CCCc3ccccc3)CC2)n1,?,6%
CCC(NC(=O)c1ccccc1NC(=O)c1ccco1)C(=O)NNC(=O)c1ccc(OC)cc1 (stereo not given),-10%,-8%
Cc1cc([N+](=O)[O-])nn1CC(=O)Nc1ccccn1,7%,11%
COc1ccc(-c2n[nH]c(C)c2-c2ccc(Cl)cc2)c(O)c1,-29%,-23%
COc1ccc(N2CCN(S(=O)(=O)c3ccc4c(c3)N(C(C)=O)CCO4)CC2)cc1,-25%,-18%
Cc1ccsc1/C=N/n1c(-c2ccccn2)n[nH]c1=S,7%,6%
CC(=O)Nc1ccc(S(=O)(=O)N(C)CC(=O)N2CCN(C(=O)c3ccco3)CC2)cc1,10%,3%
Cc1cccc(N=C2CSC(=O)N2)c1,-6%,0%
CCc1n[nH]c(=S)n1/N=C/c1ccccn1,5%,5%
CN1C(=O)[C@H]2[C@@H](/C=C/c3ccccc3)N3C(=O)CN(CCO)C(=O)[C@@]3(Cc3ccccc3)[C@H]2C1=O,9%,-17%
CCN(CC)CCN1C(=O)C(O)=C(C(C)=O)C1c1ccccc1[N+](=O)[O-] (stereo not given),?,1%
CC(O)CNCCNCc1cccs1 (stereo not given),8%,1%
CCCN(CC1CC1)C(=S)NC(=O)c1ccc(S(=O)(=O)N2CCOCC2)cc1,?,18%
CC(=O)c1sc(-c2ccccc2Cl)nc1C,14%,-3%
CCC(C)(C)c1ccc(OCC(=O)Nc2ccncc2)cc1,?,-7%
CCCc1ccc(OCC(=O)O)cc1,-25%,-18%
Cc1nc(C)n(CC(=O)N2CCCC(C(=O)c3ccc(Cl)cc3C)C2)n1 (stereo not given),0.41µM*,-2%
CC(C)c1ccc(N(C(=O)CNC(=O)c2ccco2)C(C(=O)NC2CCCC2)c2cccnc2)cc1 (stereo not given),-5%,4%
COc1ccc(Cl)cc1NC(=O)C12CCC(C)(C(=O)O1)C2(C)C (stereo not given),?,0%
COCc1ccc(C(=O)N2CCCC(C(=O)c3cc(F)ccc3F)C2)s1 (stereo not given),15%,1%
NC(=O)C1CCCN(C(=O)c2cccc(S(=O)(=O)N(Cc3ccccc3)c3ccccc3)c2)C1 (stereo not given),-21%,11%
O=C(CCc1ccccn1)N1CCCC(CNS(=O)(=O)c2cccs2)C1 (stereo not given),0%,-1%
CCOC(=O)C1=C(COC(=O)COc2ccc(C#N)cc2)NC(=O)NC1C (stereo not given),9%,-6%
O=S(=O)(NC1CC1)c1ccc(S(=O)(=O)N(Cc2ccccn2)C2CC2)cc1,-28%,12%
CCOC(=O)C1=C(c2ccc(OC)cc2)OC(N)=C(C#N)C1c1cccnc1 (stereo not given),4%,-5%
O=C(NCc1ccccc1)NC1COc2ccccc2C1 (stereo not given),12%,15%
COc1cccc(CN2CCN(CC#Cc3ccccc3)CC2CCO)c1 (stereo not given),-36%,7%
Fc1ccccc1CN1CCCCCCC1,3%,-3%
Cc1nnc(NC(=O)CSc2nc3c([nH]c4ccccc43)c(=O)n2-c2cccc(Cl)c2)s1,?,-6%

Retrieved one by one from the list above:
Structure,TDP1 cell CPT,FEN1 inhibitor
CCN(CC)CCN1C(=O)C(O)=C(C(C)=O)C1c1ccccc1[N+](=O)[O-] (stereo not given),?,1%
CCOC(=O)C1=C(c2ccc(OC)cc2)OC(N)=C(C#N)C1c1cccnc1 (stereo not given),4%,-5%
CC(C)c1ccc(N(C(=O)CNC(=O)c2ccco2)C(C(=O)NC2CCCC2)c2cccnc2)cc1 (stereo not given),-5%,4%
CN1C(=O)[C@H]2[C@@H](/C=C/c3ccccc3)N3C(=O)CN(CCO)C(=O)[C@@]3(Cc3ccccc3)[C@H]2C1=O,9%,-17%
CCCN(CC1CC1)C(=S)NC(=O)c1ccc(S(=O)(=O)N2CCOCC2)cc1,?,18%

Next section.
Structure,TDP1 cell CPT,FEN1 inhibitor
CCc1ccc(C(=O)NC2CCCCC2)s1,?,2%
COc1ccc(-c2cc(C(F)F)n3ncc(C(=O)Nc4c(C)n(C)n(-c5ccccc5)c4=O)c3n2)cc1,?,-1%
C[C@H]1CN([C@@H](C)CO)C(=O)c2cc(NC(=O)C3CCCCC3)ccc2O[C@H]1CN(C)CC1CCCCC1,-1%,-6%
COc1cc2oc(=O)cc(-c3ccc(-c4ccc(O)cc4)cc3)c2c(OC)c1OC,?,-15%
COc1ccc(/C=C/C(=O)Nn2cnnc2)cc1,-10%,-1%
COc1ccc(C(=O)Nc2ccnn2C2CCN(C(=O)c3cccnc3)CC2)cc1,-15%,-1%
Cc1ccc(NS(=O)(=O)c2cccc(C(=O)N3CCCCCCC3)c2)cc1,?,0%
CCOc1ccc(NC(=S)NCc2nc3ccccc3[nH]2)cc1,-9%,-4%
CC(=O)Nc1c(C(=O)O)oc2ccc(Cl)cc12,9%,0%
C=CCNCCCCOc1ccc(OCc2ccccc2)cc1,?,17%
CCc1c(C)nc2ncnn2c1N1CCC(C(=O)N2CCN(c3ccc(F)cc3)CC2)CC1,16µM*,-15%
COc1ccc(OC)c(NC(=O)CCN2CCC(C)CC2)c1,-27%,-11%
COc1ccc(C2=CC(=O)C[C@H](c3ccc(F)cc3)C2)cc1F,21µM*,-8%
CC(C)c1nnc(NC(=O)C2CCN(C(=O)Nc3ccc(Cl)cc3)CC2)s1,-18%,-13%
CC(C)CCOC(=O)C1[C@H]2C(=O)N(Cc3cccs3)C[C@]23C=C[C@H]1O3 (stereo not given in full),-16%,-12%
O=C(COC(=O)/C=C/c1cccc(F)c1)Nc1ncccn1,-2%,-4%
CC(C)CNC(=O)COc1ncnc2ccccc12,-4%,9%
CC1CCCCC1NC(=O)COC(=O)Cc1ccc(Br)cc1 (stereo not given),0%,-1%
Cc1cc(C)c(S(=O)(=O)N2CCCC(C(=O)N3CCCC3)C2)c(C)c1 (stereo not given),?,1%
COc1ccc(CCNC(=O)C2CCN(S(=O)(=O)N3CCC4(CC3)OCCO4)CC2)cc1OC,16%,-6%
CCOCCCNC(=O)c1cccc(NC(=O)C2=C(C)OCCS2)c1,5%,-5%
O=C(CCNC(=O)c1ccco1)NCc1ccc(C(=O)O)cc1,-12%,2%
COc1ccccc1CNC(=O)CN(c1ccc(C)cc1)S(=O)(=O)c1c(C)noc1C,?,-4%&-17%
O=C(N/N=C/c1ccc([N+](=O)[O-])o1)c1ccncc1,9.2µM*,1%
O=C1CN(C(=O)COC(=O)c2c(F)cccc2Cl)c2ccccc2N1,8%,-8%
CC(Sc1nc(-c2ccccc2)cc(C(F)(F)F)n1)C(=O)N1CCOCC1 (stereo not given),-28%,-11%
C=C(C)Cn1c(SCC(=O)O)nc2c1c(=O)[nH]c(=O)n2C,-1%,0%
COc1ccc(C(=O)Nc2ccc(C(=O)Nc3nccs3)cc2)cc1[N+](=O)[O-],3%,-10%
CCc1ccccc1N(CC)C(=O)C1CCN(c2ncnc3c2nc2n3CCCCC2)CC1,8.2µM*,-4%&15%
CSc1cccc(NC(=O)CCc2ccccc2)c1,-2%,-11%
Cc1c(NC(=O)C(=O)N/N=C/c2cccs2)c(=O)n(-c2ccccc2)n1C,7%,-7%
COc1cccc(NC(=O)CN(C)C(=O)c2cc(C)on2)c1,-4%,3%
CCc1nnc(NC(=O)C2CCN(S(=O)(=O)c3ccc(C)cc3)CC2)s1,-20%,21%
C=CCNc1nc(Cl)nc(Nc2ccc([N+](=O)[O-])cc2)n1,0%,0%
N/C(COc1cc(Cl)cc(Cl)c1)=N\O,-4%,36%
O=S(=O)(Cc1ccccc1)c1ccccc1-c1nnc(-c2ccccc2)o1,16µM*,1%
Cc1cccc(N2C(=O)CC(Sc3nc(C)cc(C)n3)C2=O)c1 (stereo not given),?,-11%
CCN(CC)S(=O)(=O)c1ccc(O)c(C(=O)OCC(=O)N2c3ccccc3CC2C)c1 (stereo not given),-13%,-5%
CCOc1ccc(CCNC(=O)COC(=O)Cn2nc(C)c([N+](=O)[O-])c2C)cc1OCC,-6%,3%
NC(=O)C1CCN(C(=O)CCSc2ccccc2)CC1,4%,-3%
CCS(=O)(=O)N1Cc2ccccc2CC1C(=O)Nc1ccc(NC(C)=O)cc1 (stereo not given),5%,9%
Cc1cc(F)ccc1NCc1ccccc1[N+](=O)[O-],-26%,-23%
CCC1=C2CC[C@H]3C(=O)N(C)C(=O)[C@H]3[C@H]2[C@@]2(Cc3ccccc3)C(=NCCOC)OC(=O)N2C1=O,6%,-1%
CN(C)c1ccnc(N(Cc2ccccc2)Cc2ccccc2)c1C#N,?,-18%
COc1ccccc1C1CCN(Cc2cccc(C(=O)N3CCC(O)CC3)c2)CC1,?,12%
CC(=O)c1cccc(NC(=O)/C(=C\c2cccnc2)NC(=O)c2ccc(C)cc2)c1,-4%,-9%
CCc1cccc(-n2c(=O)c3cccnc3n2CC(=O)NCc2ccc(C)cc2)c1,?,0%
CCOC(=O)c1c(N)sc(C(=O)Nc2ccccc2F)c1C,-17%,-3%
COc1ccc(-c2cn3ccccc3n2)cc1[N+](=O)[O-],5%,-5%
c1sc2[n+](c1C13CC4CC(CC(C4)C1)C3)CCS2,?,-4%
COc1ccc(CN2C3CCC2CC(NC(=O)c2cc(OC)c(OC)c(OC)c2)C3)cc1 (stereo not given),-5%,-9%
COCCNC(=O)C1Cc2c(ccc3ccccc23)O1 (stereo not given),2%,6%
CN1CCN(Cc2c(C#N)c3ccccc3n2C)CC1,-6%,8%
Cc1[nH]c2ccccc2c1SCC(=O)Nc1nccs1,-5%,-17%
NC(=O)CC(NC(=O)Cc1ccc(Br)cc1)c1ccc(N2CCC(N3CCCCC3)CC2)c([N+](=O)[O-])c1 (stereo not given),2%,15%
Cc1cccc(C)c1NC(=O)CNC(=O)C(C)N1CCN(c2cccc(Cl)c2)CC1 (stereo not given),?,5%
COc1ccc(OC)c(NC(=O)CS(=O)(=O)Cc2nc(-c3ccc(C)cc3)oc2C)c1,?,-15%
CCOC(=O)c1nn(-c2ccccc2F)c2nc(-c3ccco3)c(C#N)c(=O)n12,-20%,8%
CCN(CC)CCCn1c2c(c(SCC(=O)Nc3cccc(C(C)=O)c3)nc1=O)CCC2,0%,0%
CC(=O)N1CCN(S(=O)(=O)c2cccc(C(=O)NCCc3ccc(Cl)cc3)c2)CC1,-19%,-5%

Entries listed so far containing bromine:
Structure,TDP1 cell CPT,FEN1 inhibitor
CC1CCCCC1NC(=O)COC(=O)Cc1ccc(Br)cc1 (stereo not given),0%,-1%
NC(=O)CC(NC(=O)Cc1ccc(Br)cc1)c1ccc(N2CCC(N3CCCCC3)CC2)c([N+](=O)[O-])c1 (stereo not given),2%,15%

Continued:
Structure,TDP1 cell CPT,FEN1 inhibitor
CC(C)Oc1cccc(C(=O)NC(=S)Nc2ccccc2N2CCOCC2)c1,?,2%
Cc1noc(C)c1CSCC(=O)N(C)CC(=O)Nc1ccc(Cl)cc1,?,-10%
O=C1CCc2cc(NS(=O)(=O)c3ccc(Cl)cc3)cc3c2N1CC3,-5%,1%
O=C(/C=C/c1cccc(Br)c1)OCC(=O)N1CCN(c2ccccc2)CC1,-30%,-7%
CC(=O)c1ccc(NC(=O)C2CCC(CNS(=O)(=O)c3ccc(Br)s3)CC2)cc1 (stereo not given),11%,-16%
CC(Oc1ccccc1)C(=O)Nc1cccc(-c2cn3cccnc3n2)c1 (stereo not given),?,-8%
COc1cc2c(cc1OC)C(c1ccccc1[N+](=O)[O-])N(C(C)=O)CC2 (stereo not given),29%,-1%
Cc1noc(NC(=O)c2cccc(C(F)(F)F)c2)c1Cl,9%,7%
Cc1cc(C(=O)NCC(=O)OC(C)C(=O)N2CCOCC2)ccc1[N+](=O)[O-] (stereo not given),4%,12%
O=C(Nc1cccc(-c2nnc(-c3ccco3)o2)c1)C(c1ccccc1)c1ccccc1,?,-5%
C=CCNC(=S)N/N=C/c1cccc([N+](=O)[O-])c1,-22%,-14%
COc1ccc(-n2nc(C(=O)O)c3ccccc3c2=O)c(OC)c1,0%,3%
CC(C)NC(=O)c1onc(CSc2ccc(F)c(F)c2)c1C(=O)O,-14%,3%
O=C(Nc1cccc(-c2ccc3nncn3n2)c1)c1ccco1,?,1%
CCOc1cc(S(=O)(=O)N2CCC(C(N)=O)CC2)ccc1F,8%,0%
Oc1ccc(-c2nccc(-c3ccc(Br)cc3)n2)cc1,-9%,-31%
COc1cccc(NC(=O)COC(=O)c2c(C)noc2C)c1,2%,10%
COc1cc(CN2CCCCCC2)cc([N+](=O)[O-])c1O,-1%,1%
C/C(=C\C(=O)c1ccc(Cl)s1)N(C)C,0%,16%

Record cards (already shown). Values in the order: TDP1 cell CPT | FEN1 inhibitor
O=C(Nc1cccc(-c2nnc(-c3ccco3)o2)c1)C(c1ccccc1)c1ccccc1 is entered as ? | -5%
Cc1noc(C)c1CSCC(=O)N(C)CC(=O)Nc1ccc(Cl)cc1 is entered as ? | -10%

Screening results from PubChem BioAssay.
